Screens from PubChem.
GLA inh pH 4.5 – blocks human alpha-galactosidase A at pH 4.5; P06280; purified enzyme, 4-MU-alpha-Gal fluorescence, pH 4.5; activity change, negative = inhibition, % at 105 µM; 230,000 tested, under 10 active; AID 1467; inconclusive = small, poorly fitted or top-dose-only inhibition, or a rising curve; inactive = flat fitted curve, though single readings scatter; no compound was filed as active;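 also: 0% = full activity with enzyme and -100% = basal without enzyme; dose as in the result columns while the protocol names 77 µM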
Target sequence (P06280 whole entry, looked up): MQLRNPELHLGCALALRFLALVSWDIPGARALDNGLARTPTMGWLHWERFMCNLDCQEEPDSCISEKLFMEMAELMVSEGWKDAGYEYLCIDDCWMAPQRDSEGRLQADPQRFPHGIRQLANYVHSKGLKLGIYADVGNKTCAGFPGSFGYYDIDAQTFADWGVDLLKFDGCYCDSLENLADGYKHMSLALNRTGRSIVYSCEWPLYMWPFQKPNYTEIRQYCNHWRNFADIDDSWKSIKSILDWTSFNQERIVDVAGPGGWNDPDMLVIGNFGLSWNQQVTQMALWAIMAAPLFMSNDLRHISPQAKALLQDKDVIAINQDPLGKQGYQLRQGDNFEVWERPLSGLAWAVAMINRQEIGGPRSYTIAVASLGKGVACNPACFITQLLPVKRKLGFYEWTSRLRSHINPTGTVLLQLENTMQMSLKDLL
Rango release inh – prevents RanGTP from dissociating the Rango-importin beta complex; Biochemical FRET Rango-importin beta, RanGTP-induced dissociation; Potency, µM (highest dose often 46.1 µM), without a hit: top-dose activity change, negative = inhibition; 340,000 compounds, 0.071% hits; active means falling FRET ratio curve, often poorly fitted, with flat reads before Ran was added; inconclusive means other falling curves, or compound fluorescence or quenching; inactive means flat or rising ratio curve;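 also: potency is read from the fitted curve at half-maximal effect; % of control where 0% means no effect; nearly all actives have a fitted effect of over 45% in size; -100% = wells without RanGTP and RCC1; the record marks most hits as doubtful in a second field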
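Compounds sat 5 min at room temperature with 0.1 uM Rango biosensor plus 0.25 uM importin beta, then FRET pre-read. RanGTP-RCC1 (0.6 uM Ran, 2mM GTP, 0.2 uM RCC1) added for 45 min, and the CFP/YFP post-read measured blocked complex dissociation.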
miR-21 reporter – miR-21 reporter, rising signal. HeLa miR-21 FLuc reporter, luciferase, 48 h. Potency, µM (top dose mostly 38.3 µM), for the others: at the highest dose reporter change, positive = more light. 340,000 tested, under 10 active. AID 2288; active = well fitted rising curve with a large enough effect; inconclusive = small, poorly fitted or top-dose-only effect; inactive = no such curve, though single readings can be large or run the other way;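 also: % of control where 0% means no effect; miR-21 action dims this reporter so a rising signal means less miR-21 action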
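HeLa cells stably expressing CMV-driven firefly luciferase with a downstream miR-21 binding sequence, endogenously expressing miR-21, were treated with titrations (up to about 40uM final) for 48 hours at 37 degree Celsius. Luciferase luminescence was read after lysis.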
Rango complex inh – Rango-importin beta binding inhibition | AID 540263 | 340,000 compounds, 0.031% hits | Potency, µM (top dose mostly 92.2 µM), for inactives: at the top dose inhibition of complex formation | Rango CFP/YFP FRET sensor + importin beta, 45 min; active = rising FRET ratio curve, often small or poorly fitted; inconclusive = mostly compound fluorescence or quenching in the first reads; inactive = flat curves in all reads;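 also: potency is read from the fitted curve at half-maximal effect; 0% = DMSO wells and 100% = buffer wells lacking importin beta; nearly all actives have a fitted effect of over 15% in size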
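FRET biosensor (snurportin 1 IBB flanked by EYFP and cerulean), 50 nM, with compound 5 min, then 0.125 microM importin beta in PBS, 1 mM DTT, 0.02% Tween-20, 0.1% BSA. CFP/YFP ratio read after 45 min at room temperature; pre-read flags interference.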
* hit, by the source's call; ? = inconclusive; nt = no result given; [ ] = dose if it differs, or a comment.

GLA inh pH 4.5	Rango release inh	miR-21 reporter	Rango complex inh	SMILES
nt	-0.2%	nt	-0.9%	Cc1ccc(NC(=O)C2CC(=O)N(C(C)c3ccccc3)C2)cc1 (stereo not drawn)
-2.8	-9.6%	-0.8%	-1.8%	CCN(CC)c1ccc(C=Nc2cc(C)cc(C)c2)c(O)c1
-1.6	nt	-2.8%	nt	Cn1c(=O)[nH]c(=O)c2c1nc(N1CCCC1)n2CCSc1nc2ccccc2[nH]1
-5.7	1.0%	14.4%	2.2%	c1ccc2c(Nc3nc(N4CCOCC4)c4ccccc4n3)cccc2c1
6.5	-12.7%	?	-3.3%	Cc1ccc(S(=O)(=O)Nc2ccc(C(OC(=O)c3ccccc3[N+](=O)[O-])(C(F)(F)F)C(F)(F)F)cc2)cc1
nt	-3.0%	nt	0.9%	COc1ccc(CNC(=O)COC(=O)C2CC2C)cc1OC (stereo not drawn)
nt	18.1%	?	5.4%	CC(=O)c1cccc(NS(=O)(=O)c2cc(-c3cnc(C4CC4)o3)ccc2C)c1
nt	30.6%	-1.6%	-3.6%	COc1cc2c(cc1OC)C(c1ccccc1)N(C(=O)c1cccc(S(C)(=O)=O)c1)CC2 (stereo not drawn)
3.5	1.6%	-7.5%	0.1%	CC1CC(C)CN(c2nc3c(c(=O)n(C)c(=O)n3C)n2CCSc2ncccn2)C1 (stereo not drawn)
nt	5.9%	0.5%	1.0%	O=C(Nc1nnc(SCC(=O)N2CCOCC2)s1)C1CC(=O)N(c2ccccc2)C1 (stereo not drawn)
1.4	-26.1%	-42.6%	?	O=C(/C=C/Nc1ccccc1)c1ccccc1
-0.5	4.3%	-7.2%	-0.4%	Cc1c(C(=O)NCc2ccco2)cccc1[N+](=O)[O-]
2.4	-8.2%	11.6%	-2.5%	CCn1c(SCC(=O)Nc2cc(OC)ccc2OC)nnc1C1CCCCC1
8.0	-3.2%	2.8%	2.8%	Cc1cccc(CN2CCN(c3nc4nonc4nc3NC3CC3)CC2=O)c1
0.1	7.0%	-7.8%	0.3%	CCOC(=O)Nc1cccc(Cl)c1C
nt	-14.2%	10.4%	7.1%	CC(=O)N1CCOc2ccc(S(=O)(=O)N3CCC(C(=O)Nc4cc(C)ccc4C)CC3)cc21
nt	0.5%	-1.5%	1.0%	Cc1ccc(CNC(=O)C2CCN(S(=O)(=O)c3cccs3)CC2)cc1
3.2	-2.7%	-18.1%	1.6%	COCC(=O)N(C)C1(c2nnnn2CCOC(=O)Nc2ccc(Cl)cc2)CCCC1
nt	?	0.7%	-0.7%	COc1cc(OC)cc(-c2nnc(NC(=O)Cc3ccc(F)cc3)o2)c1
0.7	-1.8%	-17.1%	-2.4%	COc1ccc(C2(CNC(=O)c3ccc(OC)c([N+](=O)[O-])c3)CCOCC2)cc1OC
0.2	nt	8.6%	nt	COCCN1CN=C(Nc2nc(C)c3ccc(C)cc3n2)NC1
nt	15.5%	-62.7%	-0.5%	Cc1nn(-c2ccccc2)c(Cl)c1/C=N/NC(=O)c1ccnn1C
-1.3	1.9%	-4.3%	-0.1%	COc1ccc(CNC(=O)CN(C2CCCCC2)S(C)(=O)=O)cc1
-15.6	8.3%	-25.6%	-0.5%	Cc1ccc(N2C(=O)c3ccccc3C2Nc2ccccc2)nc1 (stereo not drawn)
-7.2	-17.1%	0.4%	1.6%	O=C(O)CCCC(=O)Nc1ccccc1Br
0.4	-3.2%	1.1%	-1.8%	Cc1cccc(-n2c(CCc3ccccc3)nnc2SCC(=O)c2ccccc2)c1
-24.2	33.4%	-0.8%	-2.2%	COc1ccccc1-c1c(C)nn2c(N3CCN(Cc4ccccc4)CC3)cc(C)nc12
0.5	-5.8%	-1.3%	?	COc1ccc(C(=O)Nc2c(C(C)(C)C)nn(C)c2C(C)(C)C)cc1
5.6	10.4%	-27.2%	-0.9%	O=C(Nc1ccc(N2CCOCC2)cc1)c1cc2c(s1)CCCC2
-6.5	19.2%	-3.0%	-2.2%	COc1ccccc1NS(=O)(=O)c1cccc(C(=O)N/N=C/c2ccc(NC(C)=O)cc2)c1

Random excerpt: 6 compounds from above.
GLA inh pH 4.5	Rango release inh	miR-21 reporter	Rango complex inh	SMILES
0.7	-1.8%	-17.1%	-2.4%	COc1ccc(C2(CNC(=O)c3ccc(OC)c([N+](=O)[O-])c3)CCOCC2)cc1OC
0.1	7.0%	-7.8%	0.3%	CCOC(=O)Nc1cccc(Cl)c1C
2.4	-8.2%	11.6%	-2.5%	CCn1c(SCC(=O)Nc2cc(OC)ccc2OC)nnc1C1CCCCC1
nt	5.9%	0.5%	1.0%	O=C(Nc1nnc(SCC(=O)N2CCOCC2)s1)C1CC(=O)N(c2ccccc2)C1 (stereo not drawn)
nt	-14.2%	10.4%	7.1%	CC(=O)N1CCOc2ccc(S(=O)(=O)N3CCC(C(=O)Nc4cc(C)ccc4C)CC3)cc21
nt	0.5%	-1.5%	1.0%	Cc1ccc(CNC(=O)C2CCN(S(=O)(=O)c3cccs3)CC2)cc1

New compounds follow
GLA inh pH 4.5	Rango release inh	miR-21 reporter	Rango complex inh	SMILES
7.0	-2.7%	-8.9%	-2.1%	CCOC(=O)c1ccc(NC(=O)CSc2nnc(Cn3c(=O)sc4ccccc43)n2C)cc1
3.2	1.1%	-7.4%	-0.2%	O=C1NC(Cc2c[nH]c3ccccc23)C(=O)N1Cc1cccc2ccccc12 (stereo not drawn)
-1.6	13.0%	-1.3%	4.4%	O=C(O)CCn1c(SCc2cc(=O)n3ccccc3n2)nc2ccsc2c1=O
0.6	13.8%	-5.1%	4.4%	CCCN(CCC)CCNC(=O)C(NS(=O)(=O)c1ccc2c(c1)CCC(=O)N2)c1ccccc1 (stereo not drawn)
2.0	7.0%	-20.3%	3.4%	N#Cc1nc(Cc2ccccc2)oc1NCCN1CCOCC1
-4.8	-2.5%	-2.2%	-2.2%	CCOC(=O)Nc1sc2c(c1C(=O)OCC)CCC2
nt	-9.1%	-4.1%	3.5%	Cc1ccc(C)c(NC(=O)CCN2CC(C)CC(C)C2)c1 (stereo not drawn)
1.4	-4.7%	0.7%	0.5%	O=C(CSc1nnc(-c2ccc(F)cc2)o1)c1ccc2c(c1)OCCO2
4.9	-0.8%	-1.8%	?	CCc1ccccc1NC(=O)CC(O)(C(=O)OC)C(F)(F)F (stereo not drawn)
-0.3	0.7%	-10.4%	-1.1%	CC12CCC(c3c(CO)nn(-c4ccccc4)c31)C2(C)C (stereo not drawn)
nt	0.7%	1.3%	0.1%	CCN(CC)CCN(C(=O)c1cc2ccccc2cc1OC)c1nc2ccc(F)cc2s1
-4.2	0.6%	18.2%	0.8%	CC12CCC(C(=O)Nc3cccc(Cl)c3)(C(Br)C1=O)C2(C)C (stereo not drawn)
nt	-6.0%	nt	-0.1%	CC(C)(C)[C@@H]1C=C(C(=O)O)O[C@H](OCCCCO)C1
nt	6.5%	nt	-2.3%	CC1CC(C)CN(C(=O)COC(=O)CN2C(=O)c3ccccc3C2=O)C1 (stereo not drawn)
nt	8.4%	-3.8%	-0.4%	COc1ccc(N2CCN(C3CCCN(Cc4ccc(F)cc4)C3)CC2)cc1 (stereo not drawn)
nt	-2.9%	-1.2%	4.2%	CC1CCCCN1S(=O)(=O)c1ccc(S(=O)(=O)N2CCN(C)CC2)cc1 (stereo not drawn)
1.4	-22.3%	0.3%	0.5%	CNC(=S)N1N=C(c2ccc(OC)cc2)CC1c1ccccc1Cl (stereo not drawn)
6.4	?	-7.0%	-4.7%	CCCCOC(=O)Nc1ccc(S(=O)(=O)Nc2cc(C)nc(C)n2)cc1
-0.6	3.6%	2.5%	0.0%	Cc1onc(-c2c(Cl)cccc2Cl)c1C(=O)O/N=C(\C#N)c1c(Cl)cccc1Cl
-11.7[21.1 µM]	0.5%	-0.4%	0.7%	COc1cccc(CCNc2ccc(N3C(=O)CC(C)C3=O)cc2[N+](=O)[O-])c1 (stereo not drawn)
5.4	-9.2%	-46.5%	0.7%	O=C(/C=C/c1ccccc1Cl)NCc1ccco1
4.8	-3.5%	-0.9%	0.5%	CC(/C=C/c1ccccc1)=N\NC(=O)c1ccc(Br)cc1
nt	-7.6%	nt	?	Cc1cc2[nH]c3c4ccccc4nc(C)c3c2cc1C
nt	7.7%	-0.3%	-0.5%	Fc1ccc(CN2CCN(c3ncnc4scc(-c5ccc(F)cc5)c34)CC2)cc1
nt	-15.0%	nt	?	Cc1sc2nc(CSC(C)C(=O)Nc3ccc(C#N)cc3)[nH]c(=O)c2c1C (stereo not drawn)
1.0	-8.8%	-0.3%	?	CCOc1cc(C2NC(=O)NC(C)=C2C(C)=O)cc(Cl)c1OCC(=O)O (stereo not drawn)
nt	-9.9%	0.1%	0.7%	Cc1cc(=O)n2nc(N3CCCC(C(=O)NCCCN4CC(C)CC(C)C4)C3)sc2n1 (stereo not drawn)
nt	26.2%	nt	-3.1%	Cn1c(SCC(=O)NC2CCCC2)nnc1C(F)(F)F
nt	-0.2%	-4.5%	0.2%	CC(C)CC(=O)Nc1ccc(Oc2ccc3c(c2)C(=O)NC3=O)cc1
3.8	?	-26.8%	-2.1%	Cc1c(O)ccc(NC(=O)/C=C/c2ccccc2)c1C
nt	1.4%	10.0%	?	CCN(C(=O)c1cc2c(=O)n3cccc(C)c3nc2n1CCCOC)C1CCCCC1
4.1	15.0%	3.6%	0.0%	COc1cc(/C=C2\SC(=O)N(Cc3ccc(Cl)cc3)C2=O)cc([N+](=O)[O-])c1O
9.7	12.5%	-3.3%	-3.7%	NS(=O)(=O)c1ccc(CCNC(=O)CSc2ccc(Cl)cc2)cc1
nt	-13.9%	nt	-0.9%	CC(C)(C)OC(=O)N1CCN(C(=O)c2ncn(Cc3ccccc3)c2C(=O)N2CCN(C(=O)OC(C)(C)C)CC2)CC1
-5.4	2.2%	-9.4%	-2.2%	Cc1ccc(-n2cc(CN3CCN(Cc4nccn4C)CC3)c(-c3ccc(F)cc3)n2)cc1
-1.5	3.0%	2.4%	1.8%	Cn1c(=O)cc(SCC(=O)NCCCN2CCN(c3ccc(F)cc3)CC2)c2ccccc21
-2.2	1.1%	-8.5%	1.4%	COCCCNc1nc2ccccc2nc1NS(=O)(=O)c1cccs1
-5.4	13.8%	?	-0.2%	O=C(COc1ccc(C(=O)c2ccccc2)cc1)NCc1ccc(F)cc1
nt	9.7%	nt	-2.4%	COc1cccc(CNc2ccc(S(=O)(=O)N3CCCC3)cn2)c1
5.2	-14.4%	-1.0%	-1.1%	CC(NC(=O)c1ccccc1Br)c1nnc(SCc2ccc([N+](=O)[O-])cc2)n1C (stereo not drawn)
3.2	0.1%	0.2%	6.9%	Cc1ccc2[nH]c(=O)cc(C(=O)OCC(=O)c3ccc(F)cc3)c2c1
nt	4.4%	-4.2%	-3.1%	CC1CCN(c2ccccc2NC(=O)c2cc([N+](=O)[O-])ccc2N2CCOCC2)CC1
-1.4	nt	-5.2%	nt	CC(=O)OC[C@H]1O[C@@H](O/N=C(\C)CCN2CCCCc3nc(C)c(C)cc32)[C@H](OC(C)=O)[C@@H](OC(C)=O)[C@@H]1OC(C)=O
5.2	-9.2%	-13.6%	-3.7%	CCCCCC(=O)NC(=S)Nc1ccccc1C(=O)OC
3.8	16.2%	-2.0%	-4.4%	Cc1cc(=O)n2nc(N3CCCC(C(=O)N4CCN(c5ccccc5)CC4)C3)sc2n1 (stereo not drawn)
-1.6	17.1%	0.1%	6.3%	O=C(Oc1cccc(C(=S)N2CCCCC2)c1)c1ccccc1
-6.8	24.1%	-31.3%	?	c1cnc2ccc(C(c3nnnn3C3CCCCC3)N3CCCCC3)cc2c1 (stereo not drawn)
-8.9	8.2%	-5.0%	-6.0%	CCc1nc(SCC(=O)Nc2cc(C)on2)n[nH]1
nt	0.9%	nt	-0.2%	Cc1noc(C)c1NC(=O)Nc1ccc2c(c1)C(=O)N([C@H](C)CO)C[C@H](C)[C@@H](CN(C)S(=O)(=O)c1ccccc1)O2
-0.9	0.3%	-2.0%	3.2%	O=C(c1ccco1)N(Cc1cc2ccccc2[nH]c1=O)CC1CCCO1 (stereo not drawn)

The list is partial; count on the stated rates, not on these rows.
